Screening data (PubChem BioAssay)
NS1 function inh = inhibitors of influenza NS1 protein function; S. cerevisiae slowed by influenza A NS1, growth recovery by OD600; 270,000 compounds, 0.4% hits; AID 2326; Potency, µM (titrated, usually from 46.1 µM), for inactives: top-dose activity, positive = more growth; further: actives are rising curves; nearly all actives have a fitted effect of over 50% in size
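Growth recovery, yeast-based: influenza A NS1 expressed in S. cerevisiae causes slow growth, and suppressors are detected by OD600. The parent strain without NS1 is used as positive control.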
Cruzain inh noDet = blocks cruzain activity in detergent-free assay. P25779. purified cruzain, Z-FR-AMC fluorescence, no detergent. Potency, µM, for inactives: max response, negative = inhibition, most hits filed as inhibitors. 200,000 compounds, 2.3% hits; active means well fitted curve in the direction sought with a large enough effect; inconclusive means small, poorly fitted or top-dose-only effect, or another doubt; inactive means no such curve, though single readings can be large; an effect the other way counts as inactive or inconclusive;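 further: plate controls were enzyme without inhibitor for no effect and buffer without enzyme for full effect; nearly all actives have a fitted effect of over 40% in size; top concentration of the series not given in the record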
Target sequence (P25779 123-467 limits assumed): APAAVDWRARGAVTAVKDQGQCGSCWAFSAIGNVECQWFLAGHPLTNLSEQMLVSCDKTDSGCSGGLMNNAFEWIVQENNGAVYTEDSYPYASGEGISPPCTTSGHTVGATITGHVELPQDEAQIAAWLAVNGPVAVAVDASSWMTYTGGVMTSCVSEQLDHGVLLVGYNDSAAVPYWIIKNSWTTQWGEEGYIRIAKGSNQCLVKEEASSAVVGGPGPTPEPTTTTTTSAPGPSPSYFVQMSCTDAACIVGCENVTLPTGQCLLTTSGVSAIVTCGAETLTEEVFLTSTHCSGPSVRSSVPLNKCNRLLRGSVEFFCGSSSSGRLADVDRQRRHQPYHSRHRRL
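Detergent-free condition (0.00005% Triton X-100) in acetate buffer pH 5.5 with DTT. 1.5 nM enzyme and compound were pre-mixed 15 min, then 2 uM Z-FR-AMC substrate added; reaction progress from fluorescence change between first and third reads (60 s).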
Lassa entry inh = blocks Lassa virus binding to or entry into cells; Lassa virus pseudotype entry inhibition, cell reporter; control for the full effect not named in the record; Potency, µM (titrated, usually from 37.9 µM), for inactives: at the top dose activity change, negative = inhibition, most hits filed as inhibitors; 300,000 compounds, 1.2% hits; AID 540256; active means well fitted inhibition curve with a large enough effect; inconclusive means small, poorly fitted or top-dose-only effect, or effect the other way; inactive means flat fitted curve, though single readings scatter; tested in HEK293 cells; further: on the % scale 0 is the no-effect control and ±100 the full control effect; nearly all actives have a fitted effect of over 50% in size; luciferase read-out
RE007 growth inh = less growth of the S. pombe RE007 Vpr strain | S. pombe RE007 Vpr strain, BacTiter-Glo ATP luminescence, 24 h; control for the full effect not named in the record | Potency, µM (titrated, usually from 92.2 µM), for inactives: at the highest dose activity change, negative = less growth | 360,000 compounds, 0.21% hits | AID 651644; active = well fitted falling curve with a large enough effect; inconclusive = small, poorly fitted or top-dose-only effect; inactive = no such curve, though single readings can be large or run the other way;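 further: on the % scale 0 is the no-effect control and ±100 the full control effect; nearly all actives have a fitted effect of over 50% in size; the assay follows cell death caused by Vpr and the record does not say whether a fall means rescue or toxicity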
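Fission yeast RE007 carrying one integrated HIV-1 vpr copy, seeded at OD 0.01 in PMG+AL medium with 23 nL pinned compound. Grown 24 h at 30 degrees; viability read by BacTiter-Glo luminescence after 5 min.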
SARS PLpro yeast = blocks SARS-CoV papain-like protease in a yeast assay; S. cerevisiae expressing SARS-CoV PLpro, growth rescue; control for the full effect not named in the record; Potency, µM (titrated, usually from 32.9 µM), inactives show top-dose activity, positive = growth rescue; 330,000 compounds, 0.19% hits; AID 485353; further: 0% is about no effect; nearly all actives have a fitted effect of over 55% in size; growth read by luminescence after 48 h
MARV entry inh = inhibitors of Marburg virus binding or cell entry. 300,000 compounds, 1.8% hits. Marburg virus pseudotyped entry inhibition, cell reporter; control for the full effect not named in the record; about a third of the inactives were read at about 46 µM. Potency, µM (titrated, usually from 37.8 µM), for inactives: at the top dose activity change, negative = inhibition, usual class: inhibitors; active = well fitted inhibition curve with a large enough effect; inconclusive = small, poorly fitted or top-dose-only effect, or effect the other way; inactive = flat fitted curve, though single readings scatter; tested in HEK293 cells; about a fifth of its hits are not listed in these tables; further: on the % scale 0 is the no-effect control and ±100 the full control effect; luciferase read-out
Cruzain Triton = cruzain (T. cruzi) inhibition with detergent | Potency, µM, for the others: max response, negative = inhibition, actives largely listed as inhibitors | 200,000 compounds, 0.43% hits | purified cruzain, Z-FR-AMC fluorescence, 0.01% Triton; active means well fitted curve in the direction sought with a large enough effect; inconclusive means small, poorly fitted or top-dose-only effect, or another doubt; inactive means no such curve, though single readings can be large; an effect the other way counts as inactive or inconclusive;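 further: plate controls were neutral wells for no effect and buffer without enzyme for full effect; nearly all actives have a fitted effect of over 40% in size; top concentration of the series not given in the record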
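Read-out: AMC fluorescence (360 nm excitation, 450 nm emission), four reads over 2 min, first-to-third difference used. Conditions: cruzain 1.5 nM, Z-FR-AMC 2 uM, pH 5.5 acetate, 5 mM DTT, 0.01% Triton X-100.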
StopGo reporter = lowers the luciferase signal of an FMDV 2A StopGo reporter. human cells with a luciferase reporter of 2A StopGo recoding; control for the full effect not named in the record. Potency, µM (doses to about 57.9 µM), inactives show at the top dose signal change, negative = less light. 410,000 compounds, 1.2% hits. AID 1159524; active = well fitted falling curve with a large enough effect; inconclusive = small, poorly fitted or top-dose-only effect; inactive = no such curve, though single readings can be large or run the other way; tested in HEK293T cells; further: on the % scale 0 is the no-effect control and ±100 the full control effect; nearly all actives have a fitted effect of over 45% in size; luciferase light after 4 h
Starred values were filed as active, the others as inactive; [ ] = another dose, or the depositor's remark. Unless noted, the call rests on the fitted dose curve; in most records, active means well fitted rising curve with a large enough effect; inconclusive means small, poorly fitted or top-dose-only effect; inactive means no such curve, though single readings can be large or run the other way. Potency means the concentration at half of the fitted maximal effect. Hits appear at their usual frequency; about 4.7% have a hit in one of these screens.

CC(C)(C)[C@H]1C=C(C(=O)NCc2nc3ccccc3[nH]2)O[C@@H](OCc2ccc(CO)cc2)C1 was read as NS1 function inh -8%, RE007 growth inh -20%, SARS PLpro yeast 1% and StopGo reporter 0%.
O=[N+]([O-])c1ccc(-c2csc(NN=C3CCCC3)n2)cc1 was read as NS1 function inh -13%, Lassa entry inh 14%[46.1 µM], RE007 growth inh 136%, SARS PLpro yeast -7%, MARV entry inh inconclusive and StopGo reporter -19%.
`O=S(=O)(c1ccc(Cl)s1)N1CCC2(CC1)OCCO2` gave NS1 function inh 4%, Lassa entry inh 13%, RE007 growth inh 3%, SARS PLpro yeast -4%, MARV entry inh 3% and StopGo reporter -9%.
Cc1ccc(-n2nc(-c3ccc(OC(F)(F)F)cc3)cc2N)cc1C was read as NS1 function inh 18%, Lassa entry inh 13%, RE007 growth inh -15%, SARS PLpro yeast -2%, MARV entry inh 9% and StopGo reporter -4%.
COc1cccc(OC)c1CNC(=O)C1CCC(=O)N(CC2CCCCC2)C1 (stereo unspecified) was read as NS1 function inh 15%, Lassa entry inh -11%[46.1 µM], RE007 growth inh -6%, SARS PLpro yeast 4%, MARV entry inh 18%[46.1 µM] and StopGo reporter -7%.
Screening CCOC(=O)C(C)CC(C)C(=O)N1CCOCCOCCN(C(=O)C(C)CC(C)C(=O)OCC)CCOCC1 (stereo unspecified) returned NS1 function inh 4%, Cruzain inh noDet inconclusive, Lassa entry inh 0%, RE007 growth inh 4%, SARS PLpro yeast 3%, MARV entry inh -10%, Cruzain Triton 4.3% and StopGo reporter -2%.
Screening Cc1cccc(NC(=O)CCCN2C(=S)NC(C)(C)CC2C)c1C (stereo unspecified) returned NS1 function inh 3%, RE007 growth inh 5%, SARS PLpro yeast 2%, MARV entry inh 5%[46.1 µM] and StopGo reporter -12%.
For CC(=NNC(=S)N1CCN(c2ccccn2)CC1)c1nccs1 the results were Lassa entry inh inconclusive, RE007 growth inh 35µM*, MARV entry inh inconclusive and StopGo reporter -9%.
Screening NC(=O)CC(NC(=O)Cc1cccc2ccccc12)c1ccc(N2CCC(Br)CC2)c([N+](=O)[O-])c1 (stereo unspecified) returned NS1 function inh -8%, RE007 growth inh -13%, SARS PLpro yeast 3% and StopGo reporter inconclusive.
Screening COc1ccc(/C=N/NC(=O)c2cc(-c3cccn3C)n[nH]2)cc1OC returned NS1 function inh 24%, Cruzain inh noDet -5%, Lassa entry inh 2%, RE007 growth inh 2%, SARS PLpro yeast -5%, MARV entry inh 31%, Cruzain Triton -5.6% and StopGo reporter 0%.
O=C(O)CC(C(=O)Nc1cccc(C(F)(F)F)c1)C1CCCO1 (stereo unspecified) was read as NS1 function inh 5%, Cruzain inh noDet 6%, Lassa entry inh 10%, RE007 growth inh 5%, MARV entry inh 1%, Cruzain Triton 3.3% and StopGo reporter -8%.
`Cc1c(C(=O)N2CCOCC2)sc(NC(=O)CCl)c1C#N` gave NS1 function inh -3%, Lassa entry inh -15%[46.1 µM], RE007 growth inh 4%, SARS PLpro yeast 1%, MARV entry inh inconclusive and StopGo reporter -9%.
`CN1CCN(C(=O)c2ccc(Cl)c(S(=O)(=O)N3CCCCC3)c2)CC1` gave NS1 function inh 1%, Cruzain inh noDet 8%, Lassa entry inh 1%, RE007 growth inh 12%, SARS PLpro yeast -2%, MARV entry inh -6%, Cruzain Triton 3.1% and StopGo reporter -2%.
For CCC12CN3CC(C)(CN(C1)C3c1ccccc1C)C2=O (stereo unspecified) the results were Cruzain inh noDet -20%, Lassa entry inh 4%[46.1 µM], MARV entry inh 5%[46.1 µM], Cruzain Triton -2.5% and StopGo reporter -6%.
`COc1ccc([N+](=O)[O-])cc1NC(=O)CCC(=O)c1cccs1` gave Lassa entry inh -13%, RE007 growth inh 11%, SARS PLpro yeast 0%, MARV entry inh -8%[46.1 µM] and StopGo reporter -11%.
Screening CSc1cccc(CN2CCN(CCc3ccccc3)C(CCO)C2)c1 (stereo unspecified) returned NS1 function inh 2%, Lassa entry inh -14%, RE007 growth inh 2%, SARS PLpro yeast 1%, MARV entry inh -12% and StopGo reporter -11%.
Screening CCCc1cc(C(=O)Nc2ccc(F)cc2F)no1 returned NS1 function inh -12%, Cruzain inh noDet -3%, RE007 growth inh -22%, SARS PLpro yeast 10%, Cruzain Triton -1.3% and StopGo reporter 65%[activator].
`O=C(c1ccccc1CCc1ccccc1)N1CCCC1` gave NS1 function inh -4%, RE007 growth inh 7%, SARS PLpro yeast 0% and StopGo reporter -4%.
Screening C[n+]1ccc(C(=O)NCc2ccccc2)cc1 returned NS1 function inh 8%, RE007 growth inh 29%, SARS PLpro yeast 5% and StopGo reporter 6%.
CC1(C)CC(=O)C2=C(C1)c1c(ccc3ccccc13)NC2c1cc([N+](=O)[O-])cc([N+](=O)[O-])c1O (stereo unspecified) was read as NS1 function inh inconclusive, Lassa entry inh -22%, RE007 growth inh -4%, SARS PLpro yeast -1%, MARV entry inh inconclusive and StopGo reporter inconclusive.

Copied from the listing, two compounds:
Screening CCOC(=O)C(C)CC(C)C(=O)N1CCOCCOCCN(C(=O)C(C)CC(C)C(=O)OCC)CCOCC1 (stereo unspecified) returned NS1 function inh 4%, Cruzain inh noDet inconclusive, Lassa entry inh 0%, RE007 growth inh 4%, SARS PLpro yeast 3%, MARV entry inh -10%, Cruzain Triton 4.3% and StopGo reporter -2%.
Screening Cc1cccc(NC(=O)CCCN2C(=S)NC(C)(C)CC2C)c1C (stereo unspecified) returned NS1 function inh 3%, RE007 growth inh 5%, SARS PLpro yeast 2%, MARV entry inh 5%[46.1 µM] and StopGo reporter -12%.

The list continues:
`Cc1ccccc1N(C(=O)c1snc(C(N)=O)c1N)C(C(=O)NC1CCCCC1)c1ccc(O)cc1` (stereo unspecified) gave NS1 function inh 8%, Lassa entry inh 11µM*, RE007 growth inh -2%, SARS PLpro yeast 4%, MARV entry inh inconclusive and StopGo reporter 2%.
Screening COCCn1c(NCc2ccccc2)nc2c1c(=O)[nH]c(=O)n2C returned NS1 function inh -2%, Cruzain inh noDet -9%, Lassa entry inh 0%, RE007 growth inh -19%, SARS PLpro yeast 13%, MARV entry inh 26%, Cruzain Triton 1.9% and StopGo reporter -17%.
For CCOc1ccc(NC(=O)c2ccc(F)c(S(=O)(=O)N3CCN(c4ccccn4)CC3)c2)cc1 the results were NS1 function inh -3%, Cruzain inh noDet -8%, Lassa entry inh -24%[14.3 µM], RE007 growth inh -6%, SARS PLpro yeast 4%, MARV entry inh -9%, Cruzain Triton 0.9% and StopGo reporter inconclusive.
Cc1ccc(C2CCN(C(=O)c3cnn(-c4ccccc4Cl)c3C3CCN(C(=O)OC(C)(C)C)CC3)C2)cc1 (stereo unspecified) was read as Cruzain inh noDet inconclusive, Lassa entry inh inconclusive, Cruzain Triton -10% and StopGo reporter inconclusive.
`CCc1nn(CCCC(=O)NCc2ccco2)c(=O)c2cc3occc3n12` gave NS1 function inh 5%, Lassa entry inh inconclusive, RE007 growth inh 2%, SARS PLpro yeast 1%, MARV entry inh 6%[46.1 µM] and StopGo reporter -7%.
Cc1cccc(CSCCNC(=O)COc2ccc(Cl)cc2)c1 was read as NS1 function inh -29%, Cruzain inh noDet 1%, Lassa entry inh -3%, RE007 growth inh -3%, SARS PLpro yeast -6%, MARV entry inh -22%, Cruzain Triton -1.3% and StopGo reporter -26%.
For CCOC(=O)c1c(NC(=O)c2cccnc2)sc(C(C)=O)c1C the results were NS1 function inh -2%, Cruzain inh noDet inconclusive, Lassa entry inh 9%, RE007 growth inh -1%, SARS PLpro yeast 13%, MARV entry inh 13%, Cruzain Triton -8.5% and StopGo reporter 0%.
CCCCc1ccc(S(=O)(=O)NCCc2ccncc2)cc1 was read as NS1 function inh -16%, Cruzain inh noDet 2%, Lassa entry inh inconclusive, RE007 growth inh -16%, SARS PLpro yeast -2%, MARV entry inh -21%[46.1 µM], Cruzain Triton -1.0% and StopGo reporter -4%.
`CCc1ccc(N(C)S(=O)(=O)c2ccc3[nH]cc(C(=O)NCC4CCCO4)c(=O)c3c2)cc1` (stereo unspecified) gave Cruzain inh noDet inconclusive, Lassa entry inh 5%[46.1 µM], Cruzain Triton -0.2% and StopGo reporter inconclusive.
Screening O=C(NCc1ccccc1)NC(=O)c1ccncc1 returned NS1 function inh 1%, Cruzain inh noDet 12%, Lassa entry inh inconclusive, RE007 growth inh 7%, SARS PLpro yeast 2%, MARV entry inh 9%, Cruzain Triton 1.7% and StopGo reporter -8%.
CCOC(=O)c1c(NC(=O)c2ccc(-n3cnnn3)cc2)sc2c1CCCC2 was read as NS1 function inh 2%, Cruzain inh noDet 0%, Lassa entry inh 16µM*, RE007 growth inh -3%, SARS PLpro yeast 1%, MARV entry inh inconclusive, Cruzain Triton -4.3% and StopGo reporter -25%.
For CC(C)(C)S(=O)(=O)c1cnc(N2CCCCC2)nc1N the results were NS1 function inh 3%, Lassa entry inh 12%, RE007 growth inh 5%, SARS PLpro yeast 1%, MARV entry inh inconclusive and StopGo reporter 13%.
Screening O=C(N/N=C/c1ccc(O)cc1)c1cncc(Br)c1 returned NS1 function inh 2%, Lassa entry inh -25%, RE007 growth inh -11%, SARS PLpro yeast 1%, MARV entry inh 39% and StopGo reporter 36%[activator].
`COc1ccc(N2C(=O)CC(Nc3cccc([N+](=O)[O-])c3)C2=O)cc1` (stereo unspecified) gave NS1 function inh -2%, RE007 growth inh -17%, SARS PLpro yeast 0% and StopGo reporter 3%.
For CCc1ccc(C(O)(CNCc2ccccc2)c2ccccc2)cc1 (stereo unspecified) the results were NS1 function inh -4%, RE007 growth inh 0%, SARS PLpro yeast -1% and StopGo reporter -24%.
